Bioassay records as filed in PubChem.
RE007 growth inh: less growth of the S. pombe RE007 Vpr strain; S. pombe RE007 Vpr strain, BacTiter-Glo ATP luminescence, 24 h; control for the full effect not named in the record; Potency, µM (highest dose often 92.2 µM), without a hit: at the highest dose activity change, negative = less growth; 360,000 compounds, 0.21% hits; AID 651644; active = well fitted falling curve with a large enough effect; inconclusive = small, poorly fitted or top-dose-only effect; inactive = no such curve, though single readings can be large or run the other way;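 note: % is set by controls: 0 for no effect and ±100 for the full control effect; nearly all actives have a fitted effect of over 50% in size; the assay follows cell death caused by Vpr and the record does not say whether a fall means rescue or toxicity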
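Fission yeast RE007 carrying one integrated HIV-1 vpr copy, seeded at OD 0.01 in PMG+AL medium with 23 nL pinned compound. Grown 24 h at 30 degrees; viability read by BacTiter-Glo luminescence after 5 min.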
StopGo reporter: FMDV 2A StopGo reporter, luciferase signal; human cells with a luciferase reporter of 2A StopGo recoding; control for the full effect not named in the record; Potency, µM (titrated, usually from 57.9 µM), inactives show top-dose signal change, negative = less light; 410,000 compounds, 1.2% hits; active = well fitted falling curve with a large enough effect; inconclusive = small, poorly fitted or top-dose-only effect; inactive = no such curve, though single readings can be large or run the other way; tested in HEK293T cells; note: % is set by controls: 0 for no effect and ±100 for the full control effect; nearly all actives have a fitted effect of over 45% in size; luciferase light after 4 h
Lassa entry inh: Lassa virus entry inhibition; Lassa virus pseudotype entry inhibition, cell reporter; control for the full effect not named in the record; Potency, µM (top dose mostly 37.9 µM), for inactives: at the highest dose activity change, negative = inhibition, hits mostly inhibitors; 300,000 compounds, 1.2% hits; active means well fitted inhibition curve with a large enough effect; inconclusive means small, poorly fitted or top-dose-only effect, or effect the other way; inactive means flat fitted curve, though single readings scatter; tested in HEK293 cells; note: % is set by controls: 0 for no effect and ±100 for the full control effect; nearly all actives have a fitted effect of over 50% in size; luciferase read-out
SARS PLP yeast: inhibitors of SARS-CoV papain-like protease in yeast. S. cerevisiae expressing SARS-CoV PLpro, growth rescue; control for the full effect not named in the record. Potency, µM (top dose mostly 32.9 µM), for the others: top-dose activity, positive = growth rescue. 330,000 compounds, 0.19% hits; note: 0% is about no effect; nearly all actives have a fitted effect of over 55% in size; growth read by luminescence after 48 h
NS1 function inh: influenza NS1 inhibition | S. cerevisiae slowed by influenza A NS1, growth recovery by OD600 | Potency, µM (doses to about 46.1 µM), for the others: at the highest dose activity, positive = more growth | AID 2326 | 270,000 compounds, 0.4% hits; note: actives are rising curves; nearly all actives have a fitted effect of over 50% in size
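S. cerevisiae expressing influenza A NS1, grown in glucose, washed, then diluted 1:100 into pH 6.0 -URA galactose medium with 23 nl compound. Growth recovery read as OD600; NS1-free strain serves as control.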
MARV entry inh: blocks Marburg virus binding to or entry into cells; Marburg virus pseudotyped entry inhibition, cell reporter; control for the full effect not named in the record; about a third of the inactives were read at about 46 µM; Potency, µM (titrated, usually from 37.8 µM), without a hit: at the top dose activity change, negative = inhibition, usual class: inhibitors; 300,000 compounds, 1.8% hits; active = well fitted inhibition curve with a large enough effect; inconclusive = small, poorly fitted or top-dose-only effect, or effect the other way; inactive = flat fitted curve, though single readings scatter; tested in HEK293 cells; about a fifth of its hits are not listed in these tables; note: % is set by controls: 0 for no effect and ±100 for the full control effect; luciferase read-out
Cruzain inh Det: cruzain (T. cruzi) inhibition with detergent; 200,000 compounds, 0.43% hits; P25779; Potency, µM, for the others: max response, negative = inhibition, actives largely listed as inhibitors; purified cruzain, Z-FR-AMC fluorescence, 0.01% Triton; AID 1478; active = well fitted curve in the direction sought with a large enough effect; inconclusive = small, poorly fitted or top-dose-only effect, or another doubt; inactive = no such curve, though single readings can be large; an effect the other way counts as inactive or inconclusive;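 note: plate controls were neutral wells for no effect and buffer without enzyme for full effect; nearly all actives have a fitted effect of over 40% in size; top concentration of the series not given in the record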
Target sequence (P25779 123-467 limits assumed): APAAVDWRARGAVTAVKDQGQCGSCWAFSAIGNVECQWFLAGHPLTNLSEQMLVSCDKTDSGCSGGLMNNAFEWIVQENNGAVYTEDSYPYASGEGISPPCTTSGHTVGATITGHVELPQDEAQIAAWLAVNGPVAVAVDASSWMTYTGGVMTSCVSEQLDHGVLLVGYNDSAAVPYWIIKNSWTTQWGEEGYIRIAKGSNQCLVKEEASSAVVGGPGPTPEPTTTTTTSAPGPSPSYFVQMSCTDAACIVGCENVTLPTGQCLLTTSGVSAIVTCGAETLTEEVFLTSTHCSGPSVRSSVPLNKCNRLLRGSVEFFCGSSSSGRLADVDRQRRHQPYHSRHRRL
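Z-FR-AMC hydrolysis (2 uM substrate) by cruzain (1.5 nM) monitored kinetically at ex 360/em 450 nm after 15 min room-temperature compound exposure; 0.01% Triton X-100, pH 5.5, 5 mM DTT.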
Cruzain inh noDet: blocks cruzain activity in detergent-free assay. AID 1476. Potency, µM, for the others: max response, negative = inhibition, actives largely listed as inhibitors. purified cruzain, Z-FR-AMC fluorescence, no detergent. 200,000 compounds, 2.3% hits. P25779; active = well fitted curve in the direction sought with a large enough effect; inconclusive = small, poorly fitted or top-dose-only effect, or another doubt; inactive = no such curve, though single readings can be large; an effect the other way counts as inactive or inconclusive;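 note: plate controls were enzyme without inhibitor for no effect and buffer without enzyme for full effect; nearly all actives have a fitted effect of over 40% in size; top concentration of the series not given in the record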
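Detergent-free condition (0.00005% Triton X-100) in acetate buffer pH 5.5 with DTT. 1.5 nM enzyme and compound were pre-mixed 15 min, then 2 uM Z-FR-AMC substrate added; reaction progress from fluorescence change between first and third reads (60 s).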
Numbers without * were called inactive; ? = inconclusive; nt = not tested or not shown; [ ] = dose if it differs, or a comment. Unless noted, calls come from the whole dose curve; as a rule, active means well fitted rising curve with a large enough effect; inconclusive means small, poorly fitted or top-dose-only effect; inactive means no such curve, though single readings can be large or run the other way. Potency is the fitted concentration of half-maximal effect.

SMILES,RE007 growth inh,StopGo reporter,Lassa entry inh,SARS PLP yeast,NS1 function inh,MARV entry inh,Cruzain inh Det,Cruzain inh noDet
O=C(CSc1n[nH]c(=O)[nH]c1=O)NC1CCCCC1,-4%,0%,nt,2%,9%,nt,nt,nt
CC(=O)n1cc([C@@H]2C=C(C(=O)Nc3ccccc3)O[C@H](OCc3ccc(CO)cc3)C2)c2ccccc21,10%,-29%,nt,1%,?,nt,nt,nt
Cc1ccc(NC(=O)CS(=O)(=O)c2c[nH]c3ccccc23)c(C)c1,3%,-14%,10%,-3%,5%,3%,-0.5%,-1%
CC(/C=N/O)Cc1ccc2c(c1)OCO2 (stereo not given),-10%,21%,1%,-5%,-8%,2%,-4.2%,5%
COc1ccc(NC(=O)CN(C)C(=O)Cn2cnc3c2c(=O)n(C)c(=O)n3C)cc1,4%,-8%,-7%,1%,nt,7%[46.1 µM],nt,nt
CC(Sc1nnc(N)s1)c1ccccc1Cl (stereo not given),-10%,-26%,nt,4%,-11%,nt,4.0%,4%
COc1ccc(OC)c(NS(=O)(=O)c2ccc(Br)s2)c1,nt,38%[activator],-23%[46.1 µM],-5%,nt,?,-7.7%,-11%
Cc1nnc(SC(C)C(=O)Nc2ccc3ccccc3c2)[nH]c1=O (stereo not given),-1%,4%,27%[46.1 µM],0%,1%,?,nt,nt
CCCN(CCC)S(=O)(=O)c1cc2c(cc1Br)CCN2C(=O)CC,14%,?,?,nt,nt,?,nt,nt
COc1cc2c(cc1OC)C(=O)CC(C)S2 (stereo not given),-7%,?,22%,6%,-5%,15%,-1.7%,1%
COc1ccccc1CN1CC(C(=O)NCCC2=CCCCC2)CCC1=O (stereo not given),-7%,9%,nt,-1%,-1%,nt,nt,nt
C=CCOCCN(C)C1=NS(=O)(=O)c2cc([N+](=O)[O-])ccc21,-9%,7%,?,0%,0%,?,nt,nt
Cc1ccc(SCc2cc(-c3ccc(Cl)cc3)on2)cc1,-4%,-23%,3%,5%,6%,7%[46.1 µM],-6.2%,10%
O=C(NCSc1ccnc(SCNC(=O)c2ccccc2)n1)c1ccccc1,1%,-6%,-7%,-7%,-5%,15%,0.5%,?
Cc1ccccc1OCC(=O)NCCc1nc2ccccc2[nH]1,1%,?,6%,10%,4%,?,5µM*,3.2µM*
O=C(OCC(=O)N1CCOCC1)c1ccc(F)cc1Cl,-8%,0%,4%[46.1 µM],-11%,9%,?,nt,nt
C/C(=N/Nc1ccc(C(=O)O)cc1)c1ccc(O)c(O)c1O,8%,-21%,20%,11%,-10%,5%,-8.3%,-21%
NNC(=O)c1c(O)c2cccc3c2n(c1=O)CCC3,4%,-20%,nt,-1%,8%,nt,nt,nt
CCOc1ccc(Oc2nc(Nc3ccc(C)cc3)nc(N(C)C)n2)nn1,-14%,?,-8%,3%,-32%,?,-2.9%,10%
Cn1cc([N+](=O)[O-])c(C(=O)N/N=C/c2ccc3c(c2)OCO3)n1,-11%,44%[activator],14%,2%,3%,18%[46.1 µM],nt,nt
O=C(OCCNc1ccc(C(F)(F)F)cc1[N+](=O)[O-])c1cc2ccccc2oc1=O,-4%,0%,4%[46.1 µM],-1%,0%,14%[46.1 µM],nt,nt
CC(=O)OC(c1nc2ccccc2c(=O)n1C1CC2(OC1=O)c1ccccc1N1C(=O)C(C)(C)N(O)C12)C(C)C (stereo not given),-11%,-12%,nt,0%,-8%,nt,nt,nt
Cc1ccc(S(=O)(=O)Nc2ccc(C(=O)NCc3ccccn3)cc2)cc1,1%,21%,1%,2%,-5%,-6%,nt,nt
CCCN1CCN(CCNC(=O)Nc2ccc(OC)c(OC)c2)CC1,nt,-8%,15%[46.1 µM],nt,nt,-14%[46.1 µM],1.4%,-2%
OC[C@@H](O)[C@@H](O[C@H]1O[C@H](CO)[C@@H](O)[C@H](O)[C@H]1O)[C@H](O)[C@@H](O)CO,6%[18.4 µM],-10%,nt,0%,-5%,nt,nt,nt
CS/C(=N\S(=O)(=O)c1cccs1)Nc1ccc(F)c(Cl)c1,31%,-15%,-3%,-29%,1%,8%,-3.1%,-8%
Cc1ccccc1C(=O)Nc1sc2c(c1C(=O)O)CCC2,-18%,3%,-43%,-3%,-34%,?,nt,nt
Cc1sc2ncnc(Nc3ccc(N4CCOCC4)cc3)c2c1-c1ccccc1,-5%,-12%,nt,5%,2%,-3%,-9.3%,?
CN1CCc2nc3ccc(F)cc3c(C(N)=O)c2C1,1%,-18%,14%,2%,-6%,24%,4.8%,1%
COc1ccc(C(NC(=O)CN2CCCCCC2)c2ccc(OC)cc2)cc1,-5%,-6%,-9%[46.1 µM],-1%,14%,?,nt,nt
CCCc1cc(=O)n2[nH]cnc2n1,2%,0%,2%,1%,9%,-2%,6.0%,-8%
O=C(O)CC/C(=N\Nc1ccc(S(=O)(=O)N2CCOCC2)cc1[N+](=O)[O-])c1cccs1,2%,-19%,-21%,3%,5%,-29%[46.1 µM],nt,nt
CCCc1nn(C)c(C(=O)Nc2cccc(CC)c2)c1Cl,-15%,4%,2%,8%,-18%,?,-2.3%,?
COc1ccc(N2CCN(S(=O)(=O)c3ccc(-c4cc(C(F)(F)F)on4)s3)CC2)cc1,nt,-13%,0%[46.1 µM],nt,nt,nt,3.7%,-7%
Cc1ccc(C(=O)NCC(=O)Nc2cccc(C(F)(F)F)c2)cc1,-8%,-1%,19%,30%,-5%,0%,1.4%,?
Cc1onc(-c2c(Cl)cccc2Cl)c1C(N)=S,-12%,5%,1%[46.1 µM],5%,nt,-29%[46.1 µM],nt,nt
O=C(CSc1ccccn1)c1ccc2c(c1)OCO2,-15%,42%[activator],-12%,-5%,18%,?,-1.2%,-9%
O=C(COc1ccc(Br)cc1)N(Cc1ccccc1)c1ccccn1,0%,-2%,8%,-10%,-6%,?,-4.5%,-10%
Cc1ccc(S(=O)(=O)NN2C(=O)c3ccccc3NC2c2cccc(O)c2)cc1 (stereo not given),11%,-12%,-12%[46.1 µM],17%,nt,-12%[46.1 µM],nt,nt
CC1C(c2ccccc2)OCCN1C (stereo not given),8%,2%,-5%,nt,nt,14%,nt,nt
Cc1ccc(S(=O)(=O)NC2(C(F)(F)F)NC(=O)N(C)C2=O)cc1 (stereo not given),0%,nt,4%,-2%,-20%,15%,9.2%,-14%
O=C(c1cccnc1)N1CCN(Cc2ccc3c(c2)OCO3)CC1,-3%,-20%,-10%,5%,2%,8%[46.1 µM],4.1%,4%
COc1ccc(N2CCN(C(=O)C(C)n3c(=O)cc(C(F)(F)F)c4c(C)nn(C)c43)CC2)cc1 (stereo not given),nt,?,11%[46.1 µM],nt,nt,nt,-2.7%,2%
COc1ccc(-c2nc(C#N)c(NC(C)c3ccccc3)o2)cc1OC (stereo not given),6%,-21%,-21%,0%,-32%,?,16%,?
COc1cccc(N2CC(NC(=O)C3CC3)CC2=O)c1 (stereo not given),nt,-22%,17%[46.1 µM],nt,nt,nt,0.3%,-3%
Nn1cc(-c2ccccc2)nc1SCC(=O)N1CCN(S(=O)(=O)c2ccc3ccccc3c2)CC1,-2%,?,-5%,0%,-9%,-11%,-3.1%,?
CC1CCN(CC(=O)Nc2nc(-c3ccccc3)cs2)CC1,-9%,1%,?,-3%,-6%,?,nt,nt
Cc1ccc(S(=O)(=O)N2CCN(C(C)C(=O)Nc3ccccc3-c3ccccc3)CC2)cc1 (stereo not given),nt,-2%,?,17%,9%,?,-2.1%,-10%
CCCCN1C(=O)c2ccc(C(=O)N(C)CC(=O)Nc3ccc(OCC)c(OCC)c3)cc2C1=O,4%,9%,?,-14%,nt,7%,nt,nt
O=C(O)Cn1cc(CN2CCOCC2)c2ccccc21,-12%,7%,nt,-6%,9%,nt,nt,nt
CCCCNC(=O)Cn1cnc2c(cnn2-c2ccc(C)cc2)c1=O,11%,22%,-23%[46.1 µM],3%,6%,13%[46.1 µM],nt,nt
Cn1ccc(-c2ccccc2)c(C#N)c1=O,15%,2%,3%[46.1 µM],3%,nt,3%[46.1 µM],nt,nt
COCC(C)n1c(C)cc(C(=O)COC(=O)c2c(C)nn(-c3ccccc3)c2C)c1C (stereo not given),-16%,-9%,?,-23%,7%,?,-5.0%,?
COc1ccc2[nH]cc(CCNC(=O)Cc3ccc(F)cc3)c2c1,9%,-5%,nt,-7%,10%,nt,nt,nt
CC(C)(C)NC(=O)C(c1ccccn1)N(C(=O)c1csnn1)C1CCCCC1 (stereo not given),-9%,-25%,?,-1%,-1%,4%[46.1 µM],nt,nt
Cc1ccc2nc(SCC(=O)NC3CCCc4ccccc43)[nH]c2c1 (stereo not given),-6%,0%,?,-12%,10%,?,-29%,12%

4 consecutive compounds out of the list so far, for reference:
SMILES,RE007 growth inh,StopGo reporter,Lassa entry inh,SARS PLP yeast,NS1 function inh,MARV entry inh,Cruzain inh Det,Cruzain inh noDet
COCC(C)n1c(C)cc(C(=O)COC(=O)c2c(C)nn(-c3ccccc3)c2C)c1C (stereo not given),-16%,-9%,?,-23%,7%,?,-5.0%,?
COc1ccc2[nH]cc(CCNC(=O)Cc3ccc(F)cc3)c2c1,9%,-5%,nt,-7%,10%,nt,nt,nt
CC(C)(C)NC(=O)C(c1ccccn1)N(C(=O)c1csnn1)C1CCCCC1 (stereo not given),-9%,-25%,?,-1%,-1%,4%[46.1 µM],nt,nt
Cc1ccc2nc(SCC(=O)NC3CCCc4ccccc43)[nH]c2c1 (stereo not given),-6%,0%,?,-12%,10%,?,-29%,12%
